DUX4 inh = inhibitors of DUX4-driven ZSCAN4 reporter expression, primary screen, 293T cells, Gaussia and Italica luciferase. activity change, negative = inhibition, % (concentration not given with the values). AID 1224904, 2016. 293T-iDUX4 ZSCAN4-Gaussia luciferase reporter, 24 h; stronger effect = lower value. hit rate 0.8% among 37,000;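 active = -10% or lower and over 25 points stronger than a control reporter; inconclusive = -10% or lower with a smaller gap; inactive = above -10%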;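 also: 0% = median of neutral control wells and -100% = median of positive control wells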
DUX4 inh difference = second read-out of DUX4 inh, no call of its own (marks repeat the call); Gaussia minus Italica difference, %; measured here: selective DUX4 reporter inhibition;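 worked out from the two reporters; negative = selective loss of the DUX4 reporter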
DUX4 inh control = further read-out of DUX4 inh, marked with its call; activity change, negative = inhibition, %; measured here: Italica tet-on control reporter;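 0 = neutral control and -100 = positive control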
Active calls of the source: *; ? = inconclusive; / = not tested or not shown; & = joins results of further samples. This is a subset, so the mix of outcomes need not match the whole.

Preview, two compounds:
DUX4 inh	DUX4 inh difference	DUX4 inh control	SMILES
7.2	-2.9	10.1	O=C(C[C@H]1CC[C@H]2[C@@H](COC[C@@H](O)CN2C(=O)Nc2ccc(Cl)cc2)O1)NC1Cc2ccccc2C1
-5.7	-15.3	9.6	C[C@@H]1CN([C@@H](C)CO)C(=O)c2ccccc2-c2ccccc2CO[C@@H]1CN(C)C

Results, previewed entries included:
DUX4 inh	DUX4 inh difference	DUX4 inh control	SMILES
7.2	-2.9	10.1	O=C(C[C@H]1CC[C@H]2[C@@H](COC[C@@H](O)CN2C(=O)Nc2ccc(Cl)cc2)O1)NC1Cc2ccccc2C1
-5.7	-15.3	9.6	C[C@@H]1CN([C@@H](C)CO)C(=O)c2ccccc2-c2ccccc2CO[C@@H]1CN(C)C
3.4	1.8	1.6	C[C@@H]1CN([C@@H](C)CO)S(=O)(=O)c2ccc(C#CC(C)(C)O)cc2O[C@@H]1CN(C)Cc1ccc(F)cc1
?	/	/	COc1cccc(S(=O)(=O)N2CC[C@@H]3[C@H](CO)Nc4ccc(C#Cc5cccnc5)cc4[C@@H]32)c1
14.5	8.2	6.3	CN(C)C(=O)c1cccc(-c2ccccc2[C@@H]2[C@@H](C#N)N(C(=O)C3CCC3)[C@H]2CO)c1
-2.5	-4.9	2.5	COc1ccc(C[C@H]2CCn3cc(nn3)COC[C@H](C)NC2=O)cc1
-3.7	-0.5	-3.2	COCC(=O)NC[C@@H]1[C@@H](c2ccccc2)[C@@H](CO)N1C(=O)c1ccccc1
0.8	2.5	-1.7	O=C(C[C@@H]1CC[C@H]2[C@@H](COC[C@H](O)CN2C(=O)Nc2ccc(F)cc2)O1)NCCc1ccccc1
0.2	-3.2	3.4	C[C@@H]1CN([C@@H](C)CO)C(=O)c2cc(C3=CCCCC3)cnc2O[C@H]1CN(C)C(=O)Cc1ccncc1
14.1	5.1	9.0	CCC(=O)N1CC2(C1)[C@H](c1ccc(-c3ccccc3C)cc1)[C@H](CO)N2C(=O)CC
4.4	4.3	0.1	COc1ccccc1NC(=O)N(C)C[C@@H]1OCc2cn(nn2)CCCC(=O)N([C@H](C)CO)C[C@H]1C
-1.7	1.7	-3.4	CCC(=O)Nc1ccc2c(c1)C(=O)N(C)C[C@@H](OC)[C@@H](C)CN(CC1CCOCC1)[C@@H](C)CO2
11.4	11.3	0.1	O=C(c1cnccn1)N1CC(=O)N2[C@H](CO)[C@@H](c3ccc(-c4cccc(F)c4)cc3)[C@H]2C1
13.4	3.0	10.4	C[C@@H](NC(=O)N(C)C[C@@H]1OCc2ccccc2-c2c(n(C)c3ccccc23)C(=O)N([C@@H](C)CO)C[C@@H]1C)c1ccccc1
1.9	-1.0	2.8	C[C@@H]1CN([C@@H](C)CO)C(=O)c2cc(NC(=O)c3ccccc3)ccc2O[C@@H](C)CCCCO[C@H]1CN(C)Cc1ccc(C(F)(F)F)cc1
-3.4	12.6	-15.9	COc1ccc2c3c(n(C)c2c1)[C@@H](CO)N(C(=O)Nc1ccc(F)cc1)CC31CN(C)C1
-4.7	-4.4	-0.3	COc1ccc2c3c([nH]c2c1)[C@@H](CO)N(Cc1ccccc1)CC31CN(C(=O)NC(C)C)C1
2.8	2.3	0.5	COc1ccc(S(=O)(=O)N(C)C[C@H]2Oc3ccc(NC(=O)NC4CCCCC4)cc3CC(=O)N([C@@H](C)CO)C[C@@H]2C)cc1
?	/	/	O=C(c1ccc2c(c1)OCO2)N1CC(=O)N2[C@H](C1)[C@H](c1ccc(C#Cc3ccccc3)cc1)[C@@H]2CO
4.2	1.5	2.7	CC(=O)N1[C@@H]2CN(C(=O)c3ccc(F)cc3)c3ccccc3[C@@H]2[C@@H]1CO
-1.9	2.3	-4.2	CCc1cnc(N2[C@H](C#N)[C@H](c3ccc(-c4cccc(F)c4)cc3)[C@H]2CO)s1
17.4	16.7	0.7	COc1ccc2c3c(n(C)c2c1)[C@@H](CO)N(C(C)=O)CC31CCN(Cc2nccs2)CC1
-5.2	-11.3	6.1	COc1ccc(NC(=O)N(C)C[C@H]2OCCCC[C@H](C)Oc3ccc(NS(=O)(=O)c4cccs4)cc3C(=O)N([C@@H](C)CO)C[C@@H]2C)cc1
8.7	3.0	5.7	COc1ccc2c3c([nH]c2c1)[C@H](CO)N(Cc1ccncc1)CC31CN(S(C)(=O)=O)C1
3.7	-1.2	4.9	CCC(=O)NC[C@H]1[C@H](c2ccccc2)[C@H](CO)N1C(=O)C1CCC1
1.1	0.8	0.4	N#C[C@@H]1N[C@H](CO)[C@@H]1c1ccc(-c2ccccc2F)cc1
2.1	-3.2	5.3	COc1ccc(CNC(=O)C[C@@H]2CC[C@@H]3[C@@H](COc4ccc(NC(=O)C5CC5)cc4C(=O)N3C)O2)cc1
2.6	0.4	2.1	CCN1Cc2cc(C(=O)NCCN3CCCC3)nc(-c3cccc(C4=CCCC4)c3)c2[C@H]1CCO
11.2	2.0	9.2	Cc1ccccc1S(=O)(=O)N1C[C@H](O)COC[C@@H]2O[C@@H](CC(=O)N3CCOCC3)CC[C@H]21
3.4	2.6	0.8	C[C@H](CO)N1C[C@H](C)[C@H](CN(C)Cc2ccc3c(c2)OCCN3C)OCc2cn(nn2)CCCC1=O
0.1	0.8	-0.7	COCC(=O)Nc1ccc2c(c1)[C@@H]1C[C@H](CC(=O)N3CCOCC3)O[C@H](CO)[C@@H]1O2
-1.7	-9.4	7.6	COc1ccc2c3c([nH]c2c1)[C@H](CO)N(Cc1ccc(F)cc1)CC31CN(C)C1
1.0	0.9	0.2	O=C(c1ccncc1)N1C[C@H]2[C@@H](c3ccccc31)[C@H](CO)N2Cc1ccc(F)cc1
-1.3	-4.5	3.2	COc1cccc(C(=O)N2C[C@@H]3[C@H](c4ccccc42)[C@H](CO)N3C(C)=O)c1
3.5	0.8	2.7	C[C@H](CO)N1C[C@H](C)[C@@H](CN(C)C(=O)Cc2ccccc2)OCc2cn(nn2)CCCC1=O
7.3	6.3	1.0	O=C(c1ccccn1)N1CC2(C1)[C@H](c1ccccc1)[C@@H](CO)N2C(=O)C1CCCC1
-9.1	3.0	-12.1	C[C@@H]1CN([C@@H](C)CO)C(=O)Cc2cc(NC(=O)C3CCCCC3)ccc2O[C@H]1CN(C)Cc1ccc(C(=O)Nc2ccccc2N)cc1
0.1	1.7	-1.6	CN1CCN(C(=O)C[C@H]2C=C[C@H](NC(=O)Nc3ccccc3F)[C@@H](CO)O2)CC1
-1.4	-1.4	0.0	COc1ccc(S(=O)(=O)Nc2ccc3c(c2)CC(=O)N([C@@H](C)CO)C[C@@H](C)[C@H](CN(C)C(=O)Nc2c(C)noc2C)O3)cc1
2.2	-1.9	4.1	C[C@@H]1COCc2cnnn2CC[C@@H](Cc2ccccc2)C(=O)N1
6.1	4.5	1.6	COc1cccc(-c2cnc3c(c2)C(=O)N([C@@H](C)CO)C[C@@H](C)[C@@H](CN(C)C(=O)Nc2ccccc2F)O3)c1
-1.2	-0.3	-0.9	CCS(=O)(=O)N1[C@H](CO)[C@@H](c2ccc(C#CC(C)C)cc2)[C@@H]1C#N
8.7	0.0	8.8	Cc1noc(C)c1C(=O)N(C)C[C@@H]1OCc2ccccc2-c2ccccc2C(=O)N([C@@H](C)CO)C[C@H]1C
2.4	-0.6	2.9	C[C@@H]1CN([C@@H](C)CO)S(=O)(=O)c2ccc(-c3ccncc3)cc2O[C@H]1CN(C)S(C)(=O)=O
2.8	6.1	-3.3	C[C@@H]1CN([C@@H](C)CO)C(=O)c2cc(NC(=O)c3ccccc3)ccc2O[C@@H](C)CCCCO[C@H]1CN(C)S(=O)(=O)c1cccs1
0.4	-4.3	4.7	O=C(Nc1cccc(Cl)c1)N1C[C@@H]2[C@H](c3ccccc31)[C@@H](CO)N2CC1CCCCC1
-0.3	1.2	-1.5	C[C@H](O)C#Cc1cnc2c(c1)C(=O)N([C@H](C)CO)C[C@@H](C)[C@H](CN(C)Cc1cncnc1)O2
2.2	1.9	0.3	CN(C[C@@H]1[C@@H](c2ccccc2)[C@H](CO)N1Cc1ccccn1)S(C)(=O)=O
1.2	-0.2	1.4	O=C(CN1CCOCC1)N[C@H]1CC[C@@H](CCNS(=O)(=O)c2ccccc2F)O[C@H]1CO
9.8	10.4	-0.6	COc1cccc(NC(=O)N(C)C[C@H]2OCc3cn(nn3)CCCC(=O)N([C@H](C)CO)C[C@H]2C)c1
0.1	3.0	-3.0	O=C(C[C@H]1CC[C@H](NC(=O)Nc2ccccc2F)[C@@H](CO)O1)NCc1ccc(Cl)cc1
2.6	1.1	1.5	Cc1ccccc1-c1ccc([C@H]2[C@@H](CO)N3C(=O)CN(C(=O)Cc4ccccn4)C[C@@H]23)cc1
6.6	7.3	-0.6	COc1cccc(S(=O)(=O)Nc2ccc3c(c2)[C@@H]2C[C@H](CC(=O)N4CCCCC4)O[C@@H](CO)[C@@H]2O3)c1
8.4	7.0	1.5	Cc1ccccc1S(=O)(=O)N1CC[C@@H]2[C@H]1c1cc(-c3ccc(F)cc3)ccc1N[C@@H]2CO
9.3	7.8	1.5	COCC(=O)Nc1ccc2c(c1)[C@H]1C[C@H](CC(=O)NCc3ccc4c(c3)OCO4)O[C@@H](CO)[C@H]1O2
0.9	1.0	-0.1	COCC(=O)N1C[C@H]2[C@@H](c3ccccc31)[C@@H](CO)N2C(=O)c1ccccc1F

Continuation.
DUX4 inh	DUX4 inh difference	DUX4 inh control	SMILES
0.4	2.4	-2.0	C[C@@H]1CN([C@H](C)CO)C(=O)c2cc(NC(=O)Nc3cccc4ccccc34)ccc2O[C@H]1CN(C)C(=O)NC1CCCCC1
6.9	4.0	2.9	CN(C)C(=O)C[C@@H]1C[C@@H]2c3cc(NC(=O)c4cccnc4)ccc3O[C@@H]2[C@H](CO)O1
-2.3	-7.0	4.7	C/C=C/c1ccc([C@H]2[C@@H](CO)N3CCCCN(CCC(F)(F)F)C[C@@H]23)cc1
-4.1	-2.1	-2.0	C/C=C/c1ccc2c(c1)O[C@@H](CN(C)C(=O)C1CCCCC1)[C@@H](C)CN([C@@H](C)CO)S2(=O)=O
0.8	-1.6	2.4	CCC(=O)N1[C@@H]2c3cccc(=O)n3C[C@H]1[C@H](CO)[C@H]2C(=O)NC1Cc2ccccc2C1
-1.1	-3.2	2.1	C[C@@H]1CN([C@@H](C)CO)C(=O)CCCn2cc(nn2)CO[C@@H]1CN(C)S(=O)(=O)c1ccc2c(c1)OCCCO2
7.0&9.9	-18.9&6.4	25.9&3.4	C/C=C/c1ccc(C2[C@@H]3CN(C(=O)Cc4ccncc4)C[C@H]2N3)cc1 (stereo partly specified)
21.8	19.0	2.8	O=C(CN1CCOCC1)N1CC[C@@H]2[C@H](CO)Nc3ccc(Br)cc3[C@@H]21
3.1	5.4	-2.3	C[C@H](CO)N1C[C@H](C)[C@@H](CN(C)C(=O)CC2CC2)Oc2cc(-c3cccnc3)ccc2S1(=O)=O
4.5	0.0	4.6	O=C(C[C@H]1CC[C@H]2NC[C@H](O)COC[C@@H]2O1)Nc1nccs1
1.8	6.7	-5.0	CCCN(C)C[C@@H]1OCc2cn(nn2)CCCC(=O)N([C@H](C)CO)C[C@@H]1C
16.0&20.6	7.4&8.7	8.7&11.9	CN(C)C(=O)c1cccc(-c2ccc(C3[C@H]4CNC[C@@H]3N4Cc3nccs3)cc2)c1 (stereo partly specified)
?	/	/	Cc1ccccc1S(=O)(=O)N1CC(=O)N2[C@@H](CO)[C@@H](c3ccc(C#CC4CC4)cc3)[C@@H]2C1
-9.0	-6.4	-2.6	O=C(c1cccc(F)c1)N1CC2(C1)[C@@H](c1ccccc1)[C@H](CO)N2C(=O)C1CCCC1
8.1	7.3	0.8	C[C@H](NC(=O)C[C@@H]1C[C@@H]2c3cc(NC(=O)C4CCOCC4)ccc3O[C@@H]2[C@H](CO)O1)c1ccccc1
-1.7	-2.1	0.5	C/C=C/c1ccc([C@H]2[C@H](CO)N[C@H]2CN(CC(C)C)C(=O)c2ccccn2)cc1
-3.3	3.7	-7.0	COc1ccc(NC(=O)N(C)C[C@@H]2OCc3ccccc3-c3ccccc3C(=O)N([C@@H](C)CO)C[C@@H]2C)c(OC)c1
-3.2	2.5	-5.6	COc1ccc(-c2ccc3n(c2=O)C[C@@H]2[C@@H](CO)[C@H](C(=O)NC4Cc5ccccc5C4)N[C@H]32)cc1
-6.1	-5.9	-0.2	O=C(Cc1ccccc1)N1C[C@H]2[C@@H](c3ccccc31)[C@@H](CO)N2C(=O)c1ccc(F)cc1
-2.7	-1.8	-0.9	COCC(=O)N(C)C[C@H]1Oc2ncc(-c3ccc(F)cc3)cc2C(=O)N([C@@H](C)CO)C[C@H]1C
1.1	2.1	-1.0	C[C@H]1CN([C@@H](C)CO)C(=O)c2cc(NC(=O)C3CC3)ccc2O[C@H]1CN(C)S(=O)(=O)c1ccccc1
-1.4	0.3	-1.7	C[C@@H]1CN([C@@H](C)CO)C(=O)Cc2cc(NC(=O)NC3CCCCC3)ccc2O[C@H]1CN(C)Cc1ccc(Oc2ccccc2)cc1
9.2	12.4	-3.3	COc1ccc2c3c(n(C)c2c1)[C@H](CO)N(C)CC31CN(S(=O)(=O)c2cccc(C)c2)C1

Some values from the results shown.
Under DUX4 inh difference, `C/C=C/c1ccc(C2[C@@H]3CN(C(=O)Cc4ccncc4)C[C@H]2N3)cc1` (stereo partly specified) is entered as -18.9&6.4
Under DUX4 inh control, `C[C@@H]1CN([C@H](C)CO)C(=O)c2cc(NC(=O)Nc3cccc4ccccc34)ccc2O[C@H]1CN(C)C(=O)NC1CCCCC1` is entered as -2.0
Under DUX4 inh difference, `C[C@@H]1CN([C@@H](C)CO)C(=O)Cc2cc(NC(=O)C3CCCCC3)ccc2O[C@H]1CN(C)Cc1ccc(C(=O)Nc2ccccc2N)cc1` is entered as 3.0
Under DUX4 inh difference, `C[C@@H]1COCc2cnnn2CC[C@@H](Cc2ccccc2)C(=O)N1` is entered as -1.9
Under DUX4 inh difference, `COc1ccc(C[C@H]2CCn3cc(nn3)COC[C@H](C)NC2=O)cc1` is entered as -4.9
Under DUX4 inh control, `CCC(=O)N1[C@@H]2c3cccc(=O)n3C[C@H]1[C@H](CO)[C@H]2C(=O)NC1Cc2ccccc2C1` is entered as 2.4

Screens as filed in PubChem.
